Compound activity from PubChem.
SARS PLpro yeast = inhibitors of SARS-CoV papain-like protease in yeast; AID 485353; hit rate 0.19% among 330,000; Potency, µM (titrated, usually from 32.9 µM), for inactives: top-dose activity, positive = growth rescue; S. cerevisiae expressing SARS-CoV PLpro, growth rescue; control for the full effect not named in the record; note: 0% is about no effect; nearly all actives have a fitted effect of over 55% in size; growth read by luminescence after 48 h
Cruzain inh Det = inhibitors of Trypanosoma cruzi cruzain with detergent | purified cruzain, Z-FR-AMC fluorescence, 0.01% Triton | hit rate 0.43% among 200,000 | Potency, µM, inactives show max response, negative = inhibition, most hits filed as inhibitors; active = well fitted curve in the direction sought with a large enough effect; inconclusive = small, poorly fitted or top-dose-only effect, or another doubt; inactive = no such curve, though single readings can be large; an effect the other way counts as inactive or inconclusive;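 note: plate controls were neutral wells for no effect and buffer without enzyme for full effect; nearly all actives have a fitted effect of over 40% in size; top concentration of the series not given in the record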
Target sequence (P25779 123-467 limits assumed): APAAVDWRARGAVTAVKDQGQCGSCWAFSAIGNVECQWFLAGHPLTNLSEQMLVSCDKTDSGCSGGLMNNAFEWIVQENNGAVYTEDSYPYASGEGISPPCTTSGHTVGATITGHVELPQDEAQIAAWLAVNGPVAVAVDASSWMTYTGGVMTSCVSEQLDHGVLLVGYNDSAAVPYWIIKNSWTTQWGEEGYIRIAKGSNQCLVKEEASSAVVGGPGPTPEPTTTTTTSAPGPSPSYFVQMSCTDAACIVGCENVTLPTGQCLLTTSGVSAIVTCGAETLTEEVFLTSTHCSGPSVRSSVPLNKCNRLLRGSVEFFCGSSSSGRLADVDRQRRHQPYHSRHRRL
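Read-out: AMC fluorescence (360 nm excitation, 450 nm emission), four reads over 2 min, first-to-third difference used. Conditions: cruzain 1.5 nM, Z-FR-AMC 2 uM, pH 5.5 acetate, 5 mM DTT, 0.01% Triton X-100.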
Cruzain noTriton = blocks cruzain activity in detergent-free assay; P25779; purified cruzain, Z-FR-AMC fluorescence, no detergent; Potency, µM, for inactives: max response, negative = inhibition, most hits filed as inhibitors; hit rate 2.3% among 200,000; active = well fitted curve in the direction sought with a large enough effect; inconclusive = small, poorly fitted or top-dose-only effect, or another doubt; inactive = no such curve, though single readings can be large; an effect the other way counts as inactive or inconclusive;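 note: plate controls were enzyme without inhibitor for no effect and buffer without enzyme for full effect; nearly all actives have a fitted effect of over 40% in size; top concentration of the series not given in the record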
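Purified cruzain at 1.5 nM, pre-incubated 15 min with compound at room temperature in 100 mM sodium acetate pH 5.5, 5 mM DTT, 0.00005% Triton X-100. Reaction started with 2 uM Z-FR-AMC; AMC fluorescence increase over 60 s gives rate.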
LASV entry inh = Lassa virus entry inhibition | Lassa virus pseudotype entry inhibition, cell reporter; control for the full effect not named in the record | Potency, µM (top dose mostly 37.9 µM), for inactives: at the highest dose activity change, negative = inhibition, most hits filed as inhibitors | hit rate 1.2% among 300,000; active means well fitted inhibition curve with a large enough effect; inconclusive means small, poorly fitted or top-dose-only effect, or effect the other way; inactive means flat fitted curve, though single readings scatter; tested in HEK293 cells; note: % is set by controls: 0 for no effect and ±100 for the full control effect; nearly all actives have a fitted effect of over 50% in size; luciferase read-out
RE007 growth inh = less growth of the S. pombe RE007 Vpr strain; S. pombe RE007 Vpr strain, BacTiter-Glo ATP luminescence, 24 h; control for the full effect not named in the record; Potency, µM (highest dose often 92.2 µM), for the others: at the highest dose activity change, negative = less growth; hit rate 0.21% among 360,000; active = well fitted falling curve with a large enough effect; inconclusive = small, poorly fitted or top-dose-only effect; inactive = no such curve, though single readings can be large or run the other way;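 note: % is set by controls: 0 for no effect and ±100 for the full control effect; nearly all actives have a fitted effect of over 50% in size; the assay follows cell death caused by Vpr and the record does not say whether a fall means rescue or toxicity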
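Fission yeast strain RE007, carrying one chromosomally integrated HIV-1 vpr copy, was seeded at OD 0.01 in PMG+AL medium with 23 nL pinned compound. After 24 h at 30 °C and 99% humidity, viability was read by BacTiter-Glo luminescence.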
MARV entry inh = inhibitors of Marburg virus binding or cell entry | Marburg virus pseudotyped entry inhibition, cell reporter; control for the full effect not named in the record; about a third of the inactives were read at about 46 µM | Potency, µM (doses to about 37.8 µM), without a hit: at the top dose activity change, negative = inhibition, usual class: inhibitors | hit rate 1.8% among 300,000; active = well fitted inhibition curve with a large enough effect; inconclusive = small, poorly fitted or top-dose-only effect, or effect the other way; inactive = flat fitted curve, though single readings scatter; tested in HEK293 cells; about a fifth of its hits are not listed in these tables; note: % is set by controls: 0 for no effect and ±100 for the full control effect; luciferase read-out
StopGo reporter = FMDV 2A StopGo reporter, luciferase signal; human cells with a luciferase reporter of 2A StopGo recoding; control for the full effect not named in the record; AID 1159524; hit rate 1.2% among 410,000; Potency, µM (top dose mostly 57.9 µM), without a hit: top-dose signal change, negative = less light; active = well fitted falling curve with a large enough effect; inconclusive = small, poorly fitted or top-dose-only effect; inactive = no such curve, though single readings can be large or run the other way; tested in HEK293T cells; note: % is set by controls: 0 for no effect and ±100 for the full control effect; nearly all actives have a fitted effect of over 45% in size; luciferase light after 4 h
NS1 inh = blocks influenza NS1 protein function; hit rate 0.4% among 270,000; Potency, µM (doses to about 46.1 µM), for the others: top-dose activity, positive = more growth; S. cerevisiae slowed by influenza A NS1, growth recovery by OD600; note: actives are rising curves; nearly all actives have a fitted effect of over 50% in size
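Read-out: OD600 growth recovery of NS1-expressing budding yeast. Cells grown overnight at 30C in -URA glucose medium, washed, resuspended and diluted 1:100 in 2% galactose assay medium, pH 6.0. Same strain lacking NS1 served as positive control.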
An asterisk follows results filed as active; ? = inconclusive; nt = not tested or not shown; & = joins results of further samples; [ ] = another dose, or the depositor's remark. Unless noted, calls come from the whole dose curve; as a rule, active means well fitted rising curve with a large enough effect; inconclusive means small, poorly fitted or top-dose-only effect; inactive means no such curve, though single readings can be large or run the other way. Potency is the fitted concentration of half-maximal effect.

SMILES | SARS PLpro yeast | Cruzain inh Det | Cruzain noTriton | LASV entry inh | RE007 growth inh | MARV entry inh | StopGo reporter | NS1 inh
CCCCC(=NCCc1c(C)[nH]c2ccc(OC)cc12)C1=C(O)CC(c2ccccc2)CC1=O (stereo not given) | -4% | nt | nt | ? | -3% | 7.9µM* | ? | nt
COc1ccc(C(=O)NC(=S)N2CCN(c3ccc([N+](=O)[O-])cc3)CC2)cc1 | ? | -9.6% | -16% | -5% | 15% | 1% | -31% | 13%
Cc1ccc2nc(NCc3ccc(F)cc3)c3nncn3c2c1 | -7% | -0.9% | -5% | 24%[46.1 µM] | 2% | -1%&-1%[46.1 µM] | -15%&-3% | 2%
Cc1cc(C)n2c(SCC(=O)Nc3cc(C)on3)nnc2n1 | 10% | -3.1% | -2% | -3% | 16% | -1% | 15% | 9%
CCN1CCN(C(=O)C2CCN(S(=O)(=O)c3ccc(Br)cc3)CC2)CC1 | -1% | nt | nt | 9% | 10% | 10% | -16% | -11%
CC(C)NS(=O)(=O)c1ccc(OCC(=O)Nc2ccc3c(c2)OCO3)c(Cl)c1 | 5% | -2.1% | -4% | -23% | 17% | ? | 5% | -15%
CCN(CC)S(=O)(=O)c1ccc(C)c(NC(=S)NC2CCCCC2)c1 | 1% | nt | nt | ? | 3% | ? | -1% | -2%
COC(=O)CN1C(=S)N(C)C(=O)/C1=C/c1cccs1 | 0% | nt | nt | nt | -5% | nt | -16% | 1%
COc1cc(NC(=O)CSCc2ccc(Cl)cc2)c(C(=O)O)cc1OC | -1% | nt | nt | nt | -3% | nt | -5% | 18%
COc1ccc(CCNC(=S)NC(=O)c2ccccc2)cc1C | -1% | nt | nt | ? | -14% | ? | -9% | -2%
Cc1cccc(-n2cnc(C(=O)NNC(=S)Nc3ccccc3)c2)n1 | ? | nt | nt | 1%[46.1 µM] | 12% | ? | -9% | nt
Nc1nc(COc2ccc3ccccc3c2)cs1 | nt | -1.8% | 9% | 5% | ? | -24% | nt | -213%
Cc1cnc(=O)[nH]c1SCC(=O)Nc1cc(C(F)(F)F)ccc1Cl | nt | -2.0% | -14% | 9%[46.1 µM] | nt | nt | -20% | nt
O=C(NC(Cc1ccccc1)C(=O)N1CCN(c2ccccn2)CC1)c1ccco1 (stereo not given) | 1% | -3.9% | -1% | ? | 9%[3.69 µM] | 11% | -5% | -12%
Cc1ccc(S(=O)(=O)NCCN2CCOCC2)c(C)c1 | 2% | nt | nt | nt | 0% | nt | 42%[activator] | 6%
COc1ccc(C2CC(=O)C3=C(C2)Nc2ccccc2NC3c2coc3ccccc3c2=O)cc1OC (stereo not given) | -28% | -6.7% | ? | -2% | -11% | -5% | -28% | 20%
Cc1cccc(C(=O)Nc2sc3c(c2C(=O)NC(C)C)CCCC3)c1 | nt | 0.8% | -3% | -9%[46.1 µM] | nt | nt | ? | nt
O=C(Cc1n[nH]c(=O)[nH]c1=O)N/N=C/c1c(O)ccc2ccccc12 | 4% | nt | nt | -13% | 1% | 9%[46.1 µM] | -11% | nt
COc1ccc(C(C)=O)cc1COC(=O)CNC(=O)C1CCCCC1 | 9% | nt | nt | -6%[46.1 µM] | -6% | 1%[46.1 µM] | 10% | nt
Cc1nn2cc(-c3ncc(C(F)(F)F)cc3Cl)cnc2c1Br | 1% | nt | nt | ? | 21% | ? | -27% | nt
O=C(NCCc1ccccn1)c1cc(-c2ccc(Cl)cc2)nc2ccccc12 | -21% | -5.1% | 17% | -12% | 7% | ? | ? | -35%
COCCCNS(=O)(=O)c1cc(-c2onc(C)c2C)ccc1OC | nt | 0.8% | 4% | 16%[46.1 µM] | nt | nt | 74%[activator] | nt
O=C1N=c2ccccc2=C1c1sc(=S)n(CC2CCCO2)c1O (stereo not given) | 3% | 7.9% | -13% | -8% | 1% | -23% | 0% | 1%
COC(=O)c1ccccc1NC(=O)c1c(Br)cnn1C | -2% | 2.7% | -8% | 1% | -13% | 23% | -6% | -32%
CCN(C(=O)COC(=O)c1c(C)nn(-c2ccccc2)c1C)C1CCS(=O)(=O)C1 (stereo not given) | 0% | nt | nt | 16%[46.1 µM] | 0% | 28%[46.1 µM] | 48%[activator] | nt
CCCOc1cc(C)c(S(=O)(=O)N2CCOCC2)cc1C | -6% | -3.5% | 10% | ? | nt | 21% | nt | -11%
CCOc1ccc(S(=O)(=O)N2CN3CCN(C3)C2)cc1 | 5% | nt | nt | -3% | 2% | 10% | -7% | 8%
CC(C)NC(=O)c1nc2c(nnn2Cc2cccc(Cl)c2)c(=O)[nH]1 | 0% | nt | nt | nt | 2% | nt | -12% | ?
Cc1cccn2c(=O)c3cc(C(=O)NC4CCS(=O)(=O)C4)n(Cc4ccccc4)c3nc12 (stereo not given) | -3% | nt | nt | nt | -9% | nt | ? | -3%
CCNC(=O)NC(=O)C(C)OC(=O)c1oc2ccccc2c1CSC1CCCCC1 (stereo not given) | 10% | -0.1% | 6% | -3% | 16% | 32% | -23% | 27%
CCc1c(C)c2cc3c(c(C)c2oc1=O)OCN(CCc1ccc(OC)c(OC)c1)C3 | nt | 1.0% | -1% | 1%[46.1 µM] | nt | -10%[46.1 µM] | -3% | nt
COc1cc(OC)c(NC(=O)CS(=O)(=O)Cc2nc(-c3ccc(C)cc3)oc2C)cc1Cl | 10% | -1.2% | ? | nt | -11% | 0% | -4% | -40%
CCOc1ccccc1NC(=O)C1CCN(S(=O)(=O)c2ccc3[nH]c(=O)oc3c2)CC1 | nt | -2.0% | -1% | 1%[46.1 µM] | nt | nt | -16% | nt
COc1cccc(NC(=O)CSc2nnc(Cc3ccc(OC)c(OC)c3)o2)c1 | 1% | nt | nt | nt | 0% | ? | 0% | 8%
Cc1ccc(CNC(=O)C2CCN(c3nnc(N4CCCC4=O)s3)CC2)cc1 | 4% | nt | nt | nt | -3% | nt | -12% | -1%
CCOC(=O)C1CCN(C(=O)CN(c2ccc3c(c2)OCCO3)S(=O)(=O)c2ccccc2)CC1 | 3% | nt | nt | ? | 13% | -1%[46.1 µM] | -13% | nt
CCOc1ccc(/C(O)=C2/C(=O)C(=O)N(CCCn3ccnc3)C2c2cccs2)cc1Cl (stereo not given) | 0% | -3.7% | 3% | 28% | 14%[3.69 µM] | 5% | 4% | -4%
Cc1ccc(CNS(=O)(=O)c2ccc(C)s2)cc1 | -5% | nt | nt | nt | 10% | nt | 3% | -5%
COc1ccc(S(=O)(=O)NNC(=O)c2ccc(-n3c(C)ccc3C)cc2)cc1 | -1% | nt | nt | 5%[46.1 µM] | 4% | -10%[46.1 µM] | -24% | 0%
Cc1cc(=O)n2c3ccccc3n(CC(O)CN3CCN(Cc4ccccc4)CC3)c2c1C#N (stereo not given) | 0% | nt | nt | nt | -2% | nt | -26% | 1%
COc1ccc(CCNC(=O)CCc2cn(C)c3ccccc23)c(OC)c1 | -1% | nt | nt | -7%[46.1 µM] | -3% | ? | -16% | -7%
COc1ccc(OC)c(NC(=O)CN2CCN(C(=O)c3ccco3)CC2)c1 | 4% | 1.8% | 7% | 10% | 7% | 11% | -13% | -7%
COc1ccc(OCc2cc(C(=O)N3CCC(OC)CC3)no2)c2ccccc12 | -8% | nt | nt | -6% | -21% | ? | 36%[activator] | -26%
NS(=O)(=O)c1ccc(Nc2nc(-c3cccnc3)cs2)cc1 | -8% | nt | nt | 3% | -7% | ? | -23% | 9%
COCCn1c(SCC(=O)NC(C)c2ccccc2)nc2ccccc21 (stereo not given) | 12% | nt | nt | 14%[46.1 µM] | 1% | 9%[46.1 µM] | -1% | -2%
Cc1ccc(Nc2cc(C)nc(-n3nc(C)cc3C)n2)cc1 | nt | -2.6% | ? | ? | nt | nt | 9% | nt
COc1ccc(OC)c(NC(=O)c2c(NC(=O)CNCc3ccco3)sc3c2CCC3)c1 | -1% | 1.8% | -11% | 15% | 14% | 10%&10% | -24% | 15%
O=c1[nH]c2ccccc2nc1-c1ccccc1 | 0% | nt | nt | -5%[46.1 µM] | -21% | ? | 7% | -12%
C=CCn1c(SCn2nnc3ccccc3c2=O)nnc1-c1ccc(Cl)cc1 | 14% | -1.6% | -6% | -16% | -8% | 18%&18% | 12% | -52%
O=C(N/N=C/c1cccnc1)c1ccc([N+](=O)[O-])cc1Cl | 2% | 1.7% | -6% | 2% | -11% | -8% | 23% | 4%
Cn1c(=O)c2c(-c3ccccc3F)c3c(nc2n(C)c1=O)-c1ccccc1C3O (stereo not given) | 4% | -4.4% | ? | 8% | 19% | 19% | -15% | -4%
CCn1c(C)c(C)c2cc(C(=O)N3CCCC3)ccc21 | ? | nt | nt | nt | 7% | nt | 0% | -17%
Cc1cc(C)n2nc(CNS(=O)(=O)c3cccc([N+](=O)[O-])c3)nc2n1 | -4% | nt | nt | 26%[46.1 µM] | 1% | 3%[46.1 µM] | -10% | 6%
Cc1ccc(NS(=O)(=O)N(C)C)cc1 | -13% | 1.2% | -7% | -8% | 1% | 9% | 14% | 7%
Clc1ccc(OCCCNCc2ccccc2)c(Br)c1 | -18% | 1.1% | 7% | 34%[14.3 µM] | 5% | ? | -16% | -18%
O=C(c1cc2ccccc2o1)N1CCC(N2CCC(C(=O)N3CCCC3)CC2)CC1 | 0% | nt | nt | 4% | -22% | -14%[46.1 µM] | 15% | 4%
CCC(C)OC(=O)c1[nH]c2c(c1C)C(=O)CC(c1ccc(N(C)C)cc1)C2 (stereo not given) | -18% | -0.2% | ? | nt | 12% | nt | -9% | 10µM*
COC(=O)C1=C(CSc2nncn2C)NC(=O)NC1c1cc(C)ccc1C (stereo not given) | 1% | 1.1% | -7% | 11% | 14% | 14% | 0% | -1%
NC(=O)c1ccc(-n2nnnc2SCc2ccccc2)cc1 | -5% | -11% | 8% | -28% | 2% | -9% | -16% | 4%
CCc1ccc(CN(C)C(=O)c2cc(S(=O)(=O)N3CCN(CC)CC3)ccc2Cl)cc1 | 1% | nt | nt | ? | -6% | ? | -25% | nt
